Compound activity from PubChem BioAssay.
CBX7 inh: CBX7 inhibition, primary AlphaScreen. hit rate 1.1% among 66,000. normalised signal (fraction of DMSO) (no concentration beside the values). O95931. AID 1224903. AlphaScreen His6-CBX7 / biotin-H3K27me3 peptide binding; hits give low values; in the data active = normalised signal below about 0.5;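 also: 100 nL library stock added to about 20 µL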
Target sequence (O95931 whole entry, looked up): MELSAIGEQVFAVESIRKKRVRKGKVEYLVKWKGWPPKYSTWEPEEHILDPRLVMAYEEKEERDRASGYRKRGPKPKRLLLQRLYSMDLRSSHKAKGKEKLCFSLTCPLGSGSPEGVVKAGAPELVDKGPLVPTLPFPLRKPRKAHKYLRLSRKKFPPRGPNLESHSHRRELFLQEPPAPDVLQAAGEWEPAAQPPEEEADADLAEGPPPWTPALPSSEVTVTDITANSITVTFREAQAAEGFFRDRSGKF
CBX7 inh z-score: further read-out of CBX7 inh, marked with its call; z-score; measured here: z-score of CBX7 signal; some inactives read as strong as hits; reference of the scale not given here;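 same signal on another scale; lower means less binding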
Numbers without * were called inactive; & = joins results of further samples.

SMILES | CBX7 inh | CBX7 inh z-score
CCOc1ccc2c(c1)c(=O)c(S(=O)(=O)c1ccccc1)cn2Cc1cccc(OC)c1 | 1 | 0.0046
CCOC(=O)N1CCC(Nc2c(NCc3cccc(OC)c3)c(=O)c2=O)CC1 | 1 | 0.5
COc1ccc(CCCc2nnc(SCC(=O)Nc3ccccc3)o2)cc1C | 1.2 | 2.3
COc1ccc(CNC(=O)C(=O)Nc2cccc(Br)c2)cc1 | 1 | 0.65
COc1ccc2nc(N3CCCC(C(=O)NCCC4=CCCCC4)C3)sc2c1 (centres undefined) | 0.99 | -0.06
O=C(Cc1c(C(=O)O)[nH]c2ccc(Cl)cc12)NCCCN1CCN(c2ccc(F)cc2)CC1 | 1 | 0.25
O=C(Nc1cccc(Cl)c1)C1CCN(S(=O)(=O)c2cnc[nH]2)CC1 | 0.91 | -1.5
Cc1cccc(NS(=O)(=O)c2ccc3c(c2)CCN3C(=O)CCC(=O)O)c1 | 0.95 | -1.6
Cc1nc2c(C(=O)NC(C)C)cnn2c(C)c1Cc1c(F)cccc1Cl | 0.92 | -1.9
CC(NC(=O)c1cc(-c2ccc(Cl)cc2)on1)c1ccccc1 (centres undefined) | 1.1 | 2.3
Cc1noc(/C=C/c2cccs2)c1S(=O)(=O)N1CCC(C(=O)Nc2cccc(F)c2)CC1 | 0.96 | -1.6
Cc1nonc1-c1csc(N)n1 | 0.74 | -3.3
Cc1oc(-c2ccccc2F)nc1CS(=O)(=O)CC(=O)NCCN1CCCC1 | 1.1 | 1.4
O=C1CN(C(=O)C2CCCCC2)C(c2ccccc2)c2cc(Cl)ccc2N1 (centres undefined) | 0.94 | -0.26
Brc1ccc(Nc2nc(-c3ccccc3)c3cc(Br)ccc3n2)cc1 | 1.6&1.6 | 18&13
COCCNC(=O)c1nnc(Cc2ccc(F)cc2)o1 | 0.81 | -2.2
COc1ccc(CC(=O)Nc2cc(C)on2)cc1OC | 1.1 | 1.2
Cc1ccc(Cn2nnc3c(=O)n(CC(=O)Nc4ccc(F)cc4)cnc32)cc1 | 0.87 | -2.2
CCOc1ccc(N2C(=O)CC(NCCNC(=O)c3ccc(Cl)cc3)C2=O)cc1 (centres undefined) | 1 | 1.1
CCCNC(=O)c1nc(-c2ccccc2C)oc1C | 1 | 0.14
COc1cccc(NS(=O)(=O)c2ccc3[nH]cc(C(=O)NC(C)c4ccccc4)c(=O)c3c2)c1 (centres undefined) | 1.1 | 1.1
Cc1ccc(N(CC(=O)Nc2ccc(Cl)cc2)S(=O)(=O)c2cccnc2)cc1 | 1.1 | 1.7
CCCOc1ccc(C(=O)N(Cc2cccc(Cl)c2)C2CCS(=O)(=O)C2)cc1 (centres undefined) | 1.1 | 0.1
CCOC(=O)c1cnc2ccc(OC)cc2c1Nc1ccccc1OC | 0.54 | -2
COc1ccc(-c2nc(SCC(=O)Nc3ccccc3)c(-c3ccccc3)[nH]2)cc1OC | 0.83 | -8
O=C(c1ccc2c(c1)N(Cc1ccccc1F)C(=O)c1ccccc1S2(=O)=O)N1CCOCC1 | 0.99 | -0.15
COc1ccc(N(C)S(=O)(=O)c2ccc3c(c2)CCN3C(=O)C2CC2)cc1 | 1 | 0.97
Cc1ccc(NC(=O)CCNS(=O)(=O)c2ccc3c(c2)CCC(=O)N3)cc1 | 0.99 | -0.12
CC(C)(C)c1ccc(-c2csc(NC(=O)c3ccc(Oc4ccccc4)cc3)n2)cc1 | 1.1 | 1.2
COc1ccc(OC)c(-c2cc(C(=O)Nc3ccc(C)c(C)c3)no2)c1 | 1.1 | 0.97
CCN(CC)CC(C)CNC(=O)CN1C(=O)CSc2ccc(S(=O)(=O)N3CCOCC3)cc21 (centres undefined) | 1 | -0.13
CC(NC(=O)CN1CCN(Cc2ccc(F)cc2)C1=O)c1ccccc1 (centres undefined) | 0.93 | -0.87
O=C(NCCCN1CCc2ccccc2C1)c1ccc2nc(N3CCOCC3)sc2c1 | 1.3 | 2.8
COc1ccc(NC(=O)CSc2nccn2C)c(OC)c1 | 1 | 0.13
Cc1ccc2c(c1)N(CC(=O)NCCC(C)C)C(=O)CO2 | 1.2 | 2.7
O=C(NCc1ccccc1Cl)c1cc(=O)[nH]c2ccc(S(=O)(=O)N3CCCCC3)cc12 | 0.99 | -0.14
COc1ccccc1Nc1cc(C(=O)NCCCN2CCOCC2)c2ccccc2n1 | 1 | 0.028
CCOC(=O)c1cnc2ccc(OCC)cc2c1N1CCCC1 | 0.9 | -0.11
O=C(CCc1ccccc1)Nc1c2c(nn1-c1ccc(Cl)cc1)CSC2 | 1 | 1.6
CC(C)Oc1ccc(C(=O)Nc2ccc3oc(-c4ccncc4)nc3c2)cc1 | 0.96 | -0.39
CCc1cccc(-n2c(C)nc3c(cnn3-c3ccc(F)cc3)c2=O)c1 | 0.95 | -0.77
O=C(Cn1ncc2c1-c1ccccc1OC2)Nc1ccccc1Cl | 1.2 | 1
Cc1ccc(C(NC(=O)CCc2ccccc2)c2ccc3cccnc3c2O)cc1 (centres undefined) | 0.071* | -3.3*
Cc1ccc(CN(Cc2cccnc2)C(=O)Nc2ccc(Cl)c(Cl)c2)cc1 | 0.77 | -0.23
CCOc1ccc(CN2C(=O)CCC2(C)C(=O)NC2CCCC2)cc1 (centres undefined) | 0.86 | -2.3
COc1ccc(NC(=O)CNC(=O)Cn2cnc3sc(C)cc3c2=O)cc1OC | 1 | 0.2
CCOc1ccc(-c2cc(C(=O)NCc3ccc4c(c3)OCO4)c3ccccc3n2)cc1 | 1.1 | 2.3
Cc1onc(-c2ccccc2)c1C(=O)NCc1cccnc1 | 1 | 0.6
CCCCNC(=O)c1c[nH]c2ccc(S(=O)(=O)Nc3cccc(OC)c3)cc2c1=O | 1.1 | 1.3
O=C(NCCc1ccc(Cl)cc1)c1cnn2c(C(F)F)cc(-c3ccccc3)nc12 | 1.1 | 1.5
Cc1oc(-c2ccccc2F)nc1C(=O)NC1CCCC1 | 1 | 1.1
Cc1cccc(-c2nc(S(=O)(=O)c3ccccc3)c(N3CCCCCC3)o2)c1 | 0.91 | -0.78
COc1ccc(CCNC(=O)C(=O)NCCc2c[nH]c3ccccc23)cc1OC | 0.87 | -2.9
CCOc1ccc(CCNC(=O)CCc2c(C)nc3cc(-c4cccc(F)c4)nn3c2C)cc1 | 0.98 | -0.76
COCCNC(=O)c1ccc2c(c1)N(Cc1ccccc1F)C(=O)c1ccccc1S2 | 0.99 | -0.25
CCOc1ccc(NC(=O)Cc2c(C(=O)O)[nH]c3ccccc23)cc1 | 0.99 | -0.29
O=C(Nc1nnc(-c2ccccc2)s1)c1ccc(F)cc1 | 0.91 | -0.21
CS(=O)(=O)Nc1cc(-c2nnc(Nc3ccc(O)cc3)c3ccccc23)ccc1N1CCOCC1 | 0.93 | -0.35
O=C(O)c1ccccc1OCC(O)Cn1cnc2ccccc21 (centres undefined) | 1 | -0.024
O=C(Nc1ccc(OC(F)(F)F)cc1)c1cc(-c2ccco2)on1 | 0.98 | -0.62

The list goes on:
SMILES | CBX7 inh | CBX7 inh z-score
Cc1c(C(=O)NCc2ccccn2)sc2nc(-c3ccc(F)cc3)cn12 | 1.1 | 2
CCOc1ccc(-c2cc(C(=O)NCC3COc4ccccc4O3)c3ccccc3n2)cc1 (centres undefined) | 1 | 0.75
OC1(C#Cc2ccccc2)CCN(Cc2ccccc2)CC1 | 1 | 1
COc1ccc(CC(=O)Nc2c3c(nn2-c2cccc(Cl)c2)CS(=O)(=O)C3)cc1 | 0.98 | -0.1
O=C(COc1ccc(-c2ccccc2)cc1)Nc1nccs1 | 1.1 | 1.7
Clc1ccc(OCc2nc(-c3ccccc3)no2)cc1 | 1.1 | 3.7
CC(=O)N1CCc2cc(S(=O)(=O)Nc3cc(C)cc(C)c3)ccc21 | 0.97 | -0.87
COc1ccc(CNc2oc(COc3ccc(Cl)cc3)nc2C#N)cc1 | 0.84 | -6.8
N#Cc1c(NCCCO)nc(-c2ccco2)c2c1CCCC2 | 1.1 | 1.9
Cc1cccc(CN2C(=O)c3ccccc3S(=O)(=O)c3ccc(C(=O)NCCC(C)C)cc32)c1 | 0.99 | -0.32
CCCc1cc(=O)[nH]c(SCC(=O)Nc2ccccc2C(F)(F)F)n1 | 0.88 | -2.4
CC(C)n1c(CCCNC(=O)C(C)(C)C)nc2ccccc21 | 1.2 | 1.7
COCCCNC(=O)C1CCCN(c2nn3c(=O)cc(C)nc3s2)C1 (centres undefined) | 1.5 | 3.7
Cc1ccc(-n2ncc(C(=O)Nc3ccc(F)cc3)c2C2CCN(C(=O)OC(C)(C)C)CC2)cc1 | 0.97 | -0.91
CCOc1ccccc1C(=O)Nc1c(-c2ccc(OC)cc2)nc2cc(C)ccn12 | 0.85 | -4.3

Compound profiles, as listed above. Values in the order: CBX7 inh | CBX7 inh z-score
CCCc1cc(=O)[nH]c(SCC(=O)Nc2ccccc2C(F)(F)F)n1 across the screens: 0.88 | -2.4
Cc1cccc(CN2C(=O)c3ccccc3S(=O)(=O)c3ccc(C(=O)NCCC(C)C)cc32)c1 across the screens: 0.99 | -0.32
COCCCNC(=O)C1CCCN(c2nn3c(=O)cc(C)nc3s2)C1 (centres undefined) across the screens: 1.5 | 3.7
CCOc1ccc(-c2cc(C(=O)NCC3COc4ccccc4O3)c3ccccc3n2)cc1 (centres undefined) across the screens: 1 | 0.75
Cc1c(C(=O)NCc2ccccn2)sc2nc(-c3ccc(F)cc3)cn12 across the screens: 1.1 | 2

(next part)
SMILES | CBX7 inh | CBX7 inh z-score
COc1ccc(CCNC(=O)c2ccc3c(c2)N(Cc2ccc(Cl)cc2)CCS3)cc1OC | 0.82 | -2.8
O=C(CN1CCCN(Cc2ccc(F)cc2Cl)C1=O)NC1CCCC1 | 1.1 | 1.8
Cc1ccc(CNC(=O)C2CCN(S(=O)(=O)c3cccc4nonc34)CC2)cc1 | 1 | 0.039
CCc1nc(SCC(=O)Nc2ccc(NC(C)=O)cc2)n[nH]1 | 0.92 | -0.34
FC(F)(F)c1nnc2c3ccccc3c(Cl)nn12 | 1.1 | 1.3
CCOc1ccc2nc(N3CCCC(C(=O)Nc4ccccc4C(=O)OC)C3)sc2c1 (centres undefined) | 0.93 | -2
CC(=O)NCCc1nc2ccccc2n1CCOc1ccccc1 | 1.1 | 3
COC(=O)c1c(NC(=O)COc2cc(C)c(Cl)c(C)c2)sc(C)c1C | 1.1 | 0.29
COc1ccc(Br)cc1CNC(=O)CCN1C(=O)COc2ccccc21 | 0.98 | -0.55
CCC(=O)N1CCc2cc(S(=O)(=O)N(C)c3cccc(C)c3)ccc21 | 1.1 | 1.9
COc1cc(OC)cc(-c2nc3nc(C)c(CCC(=O)NCc4cccc(Cl)c4)c(C)n3n2)c1 | 1.6 | 2.8
Cc1ccc2nc(-c3cccc(Cl)c3)c(Nc3ccccc3C)n2c1 | 1.1 | 0.64
CCOc1ccccc1NS(=O)(=O)c1ccc(C)cc1 | 1.2 | 2
Cc1ccc(C(=O)c2nocc2C(=O)c2ccccc2)cc1 | 1 | 0.061
O=C(Nc1cccc(-c2nc3ncccc3o2)c1)c1ccc2c(c1)OCO2 | 1 | 1.5
O=C(Nc1c(-c2cccs2)nc2ccc(Cl)cn12)c1ccccc1 | 0.94 | -1.5
Cc1cc(C)n(-c2nc3nonc3nc2Nc2ccc(C)c(C)c2)n1 | 0.7 | -2.1
COc1cccc(-c2nn(C)c3sc(C(=O)NCCCN4CCc5ccccc5C4)cc23)c1 | 0.92 | -2.3
CCOC(=O)c1nc(Nc2ccc(F)c(Cl)c2)c2ccccc2n1 | 1 | -0.015
CC1CCC(NC(=O)C2c3cccn3CC(=O)N2C2CC2)CC1 (centres undefined) | 1.1 | 1.7
CCOc1cc2c(cc1OCC)C(c1cccc(Oc3ccccc3)c1)NCC2 (centres undefined) | 0.76 | -4
O=C(Cn1nc(-c2ccccc2)c2ccccc2c1=O)Nc1ccc(O)cc1 | 1 | 1.7
Cc1ccc(CN2C(=O)CCC2C(=O)NCc2ccccc2Cl)cc1 (centres undefined) | 0.98 | -0.92
O=C(Nc1c(-c2cccs2)nc2ccccn12)c1cccc(C(F)(F)F)c1 | 1 | -0.022
COC(=O)c1c(N2C(=O)CCC2=O)sc2c1CCCC2 | 0.97 | -0.84
Cc1cccc(-n2cc(-c3ccc4c(c3)OCO4)[nH]c2=O)c1 | 0.94 | -1.4
COC(=O)C(NC(=O)CCc1c(C)nc2c(-c3ccccc3)c(C)nn2c1C)C(C)C (centres undefined) | 1.2 | 2.1
CCN1CCN(c2nc(-c3ccc(Cl)cc3)cc(C(F)(F)F)n2)CC1 | 1.1 | 0.079
CCc1ccccc1NC(=O)c1cnn(-c2ccc(C)cc2)c1C1CCN(C(=O)OC(C)(C)C)CC1 | 0.94 | -1.8
CCCn1c(-c2nonc2NC(C)=O)nc2ccccc21 | 1.1&1.1 | 2.5&0.086
O=C1CCCc2nn(-c3ccccc3)c(-c3ccc(Cl)cc3)c21 | 1.1 | 1.3
NC(=O)c1ccc(-n2nnnc2SCC(=O)Nc2ccc(F)cc2)cc1 | 1 | 0.36
CCC1=Nc2cc(C(=O)N3CCN(c4cccc(Cl)c4)CC3)ccc2Sc2ccccc21 | 0.77 | -3.7
COCCN1Cc2cccc(C(=O)Nc3cc(C)cc(C)c3)c2C1=O | 1.1 | 1.6
COc1cc(CNc2ccc3[nH]c(=O)[nH]c3c2)cc(Br)c1OCc1cccs1 | 0.81 | -6.6
CCc1ccc(-c2nc(CN3CCCC(C(=O)NCCN4CCCC4)C3)c(C)o2)cc1 (centres undefined) | 0.94 | -0.66

Random excerpt: 6 records from the list.
SMILES | CBX7 inh | CBX7 inh z-score
COc1cc(CNc2ccc3[nH]c(=O)[nH]c3c2)cc(Br)c1OCc1cccs1 | 0.81 | -6.6
CCc1ccc(-c2nc(CN3CCCC(C(=O)NCCN4CCCC4)C3)c(C)o2)cc1 (centres undefined) | 0.94 | -0.66
CCC1=Nc2cc(C(=O)N3CCN(c4cccc(Cl)c4)CC3)ccc2Sc2ccccc21 | 0.77 | -3.7
COCCN1Cc2cccc(C(=O)Nc3cc(C)cc(C)c3)c2C1=O | 1.1 | 1.6
O=C1CCCc2nn(-c3ccccc3)c(-c3ccc(Cl)cc3)c21 | 1.1 | 1.3
NC(=O)c1ccc(-n2nnnc2SCC(=O)Nc2ccc(F)cc2)cc1 | 1 | 0.36

Some of the compounds tested. The share of hits here may be higher or lower than overall.
